# Mtb H37Rv = Mycobacterium tuberculosis H37Rv growth inhibition, cell based, confirmatory dose response (AID 1949) | M. tuberculosis H37Rv growth inhibition | inhibition, % at 10 µg/mL; hits with a dose series show IC50 in µg/mL | actives 1.6% (n = 100,000) | most inactive calls were filed without a number and no value below 0 was filed;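 active = confirmed in a dose series; inconclusive = about 50% or more but not retested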;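 note: bacteria grown 7 days with compound before Alamar blue readout; 0% = untreated bacteria and 100% = reference antibiotic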
# * marks the source's active call; other numbers are inactive results; i = inactive; ? = inconclusive. A portion of the library; the hit share may differ from the screen's.
SMILES	Mtb H37Rv
CC(C)OC(=O)c1ccc(Cn2c(-c3ccccc3)nnc2-c2ccccc2)cc1	3%
COC(=O)c1cc(NC(=O)CSc2nnc(C(C)NC(=O)c3ccc(Cl)cc3)n2C)ccc1Cl (centres undefined)	i
COC(=O)COc1ccc(S(=O)(=O)NCCc2ccccc2)cc1Cl	i
CC(=O)Nc1ccc(N2C(=O)c3cccc4cccc(c34)C2=O)cc1	i
COc1ccc(-c2nnc(-c3ccc([N+](=O)[O-])cc3)o2)cc1	i
CC1=C(C(=O)Nc2cccnc2)C(c2cccnc2)n2ncnc2N1 (centres undefined)	0%
Cc1ccc2c(ccn3cc4c(c(=O)n(C)c(=O)n4C)c23)c1	i
COc1ccc(OC)c(NC(=O)C(=O)NCc2ccc(F)cc2)c1	i
Cc1ccc(SCC(=O)Nc2ccc(Br)c(C)c2C)cc1	i
Cc1ccc(S(=O)(=O)NC2(C(F)(F)F)C(=O)N(CC3CCCO3)C3=C2C(=O)CC(C)(C)C3)cc1 (centres undefined)	2%
O=C(Nc1ccc2oc(-c3cccnc3)nc2c1)c1oc2ccccc2c1Cl	4%
COc1cccc(OCC(=O)Nc2cc(NC(=O)COc3cccc(OC)c3)cc(C(=O)O)c2)c1	i
O=C(c1cccc([N+](=O)[O-])c1)N1CCN(C(=O)N2CCCCC2)CC1	i
CCc1ccc(Oc2coc3cc(OC(C)C(=O)OC)ccc3c2=O)cc1 (centres undefined)	3.1µg/mL*
CCOc1ccccc1NC(=O)C(=O)NC	i
O=C(Nc1nc(COc2ccccc2)cs1)c1sc2cc(Cl)ccc2c1Cl	i
O=C(O)COc1ccc(S(=O)(=O)N2CCCCC2)cc1	i
CC(C)(C)CC(=O)Nc1ccc(F)cc1	1%
COc1ccccc1N(CC(O)Cn1nc(C)cc1C)S(=O)(=O)c1ccccc1 (centres undefined)	4%
O=C(Cc1ccc(Cl)cc1)NC(=S)Nc1ccc(I)cc1	i
CCOC(=O)N1CCN(C(=O)CCCn2c(=S)[nH]c3ccccc3c2=O)CC1	i
Cc1onc(C(=O)N2CCN(c3ccc(F)cc3)CC2)c1-c1ccccc1Cl	i
O=C(CCN1CCN(Cc2cccc3ccccc23)CC1)Nc1ccccc1	i
Nc1nc(SCC(=O)N2CCc3ccccc3C2)[nH]c(=O)c1-c1ccccc1	i
Cc1cc(C)cc(C(=O)Nc2nc3c(C)cc(C)cc3s2)c1	i
O=C1C2C3C=CC(C3)C2C(=O)N1c1ccc(I)cc1 (centres undefined)	i
Cc1cccc(Cn2c(Sc3nc(C)cs3)nc3c2c(=O)[nH]c(=O)n3C)c1	i
Cc1cc(OCC(=O)Nc2ccc(F)cc2Cl)c2c3c(c(=O)oc2c1)CCC3	i
N#Cc1nc(-c2ccccc2F)oc1NC1CC1	i
O=C(Nc1ccncc1)c1cccc(Cl)c1Cl	1%
CCN(CC)S(=O)(=O)c1ccc(NC(=O)CCc2ccccc2)cc1	i
CCn1c(CNC(=O)Cc2ccc(OC)cc2)nnc1SCC(=O)Nc1c(C)cc(I)cc1C	i
Clc1ccc(Br)cc1-c1nc(-c2cccnc2)no1	i
CCOC(=O)N1CCN(C(=O)CN(c2cc(Cl)cc(Cl)c2)S(C)(=O)=O)CC1	i
O=C(NC1CCCCCC1)C1CCN(C(=O)c2ccccc2Cl)CC1	3%
Cc1cccc(N2CCN(C(=S)Nc3cccnc3)CC2)c1C	i
Cc1cc(Br)cc(C)c1OCCOCCN(C)C	i
O=C(Cc1cccc2ccccc12)Oc1ccc(Cl)cc1	6%
CCOCC(=O)N1CCN(c2ccccc2OC)CC1	i
CC(=O)C(C)Sc1nc(-c2ccc3c(c2)OCCO3)cc(C(F)(F)F)c1C#N (centres undefined)	3%
CCOC(=O)c1ccc(NC(=O)C(CCSC)N2C(=O)c3ccccc3C2=O)cc1 (centres undefined)	i
CC(C)NC(=S)NCc1cnn(C)c1	i
CC(C)(C)NS(=O)(=O)c1ccc(NC(=O)c2ccc(C(=O)Nc3ccc(S(=O)(=O)NC(C)(C)C)cc3)cc2)cc1	i
CC1CCC(NC(=O)c2ncn[nH]2)CC1 (centres undefined)	1%
O=C(CSc1ccc(Br)cc1)N1CCN(c2ccccc2)CC1	2%
CCOc1ccccc1N(CC(=O)NCC1CCCO1)S(=O)(=O)c1ccc(Cl)cc1 (centres undefined)	3%
CC(=O)Nc1cccc(NC(=O)CSc2nc(-c3cccs3)cc(-c3ccccc3)c2C#N)c1	i
CN(CC(=O)N1CCN(Cc2ccccc2)CC1)S(=O)(=O)c1ccc(Cl)cc1	i
CC(=O)Nc1ccc(-c2nnc(SCc3ccc(Br)cc3)n2C)cc1	i
Cc1cc(Br)cc2cc(-c3nc4ccccc4[nH]3)c(=O)oc12	3%
CCCCC(CC)CNC(=O)OCC (centres undefined)	i
Cc1ccc(-n2ncc3c(N4CCC5(CC4)OCCO5)ncnc32)c(C)c1	i
N#Cc1ccc(-c2ccc3c(c2)OCO3)nc1SCC(=O)Nc1c(Cl)cccc1Cl	i
CC(C)(C)c1cc(CN(CCO)CCO)cc(C(C)(C)C)c1O	i
COc1ccc(OCCNS(=O)(=O)c2ccc3oc4ccccc4c3c2)cc1	i
CCC(=O)Nc1cccc(-c2csc(C)n2)c1	15%
CCOc1ccc(OCc2cccc(C(=O)N3CCCCCC3)c2)cc1	9%
Cc1ccc(C(C)C)c(OCC(N)=O)c1	1%
O=C(Cc1ccccc1)Nc1nnc(-c2cccc([N+](=O)[O-])c2)s1	i
COc1ccc(CNC(=O)CN(Cc2ccc(Cl)cc2)S(=O)(=O)c2ccccc2)cc1	i

# Next part.
SMILES	Mtb H37Rv
FC(F)(F)c1cccc(NC(=S)N2CCN(c3cccc(C(F)(F)F)c3)CC2)c1	i
COc1cc(NC(=O)c2c(-c3ccccc3Cl)noc2C)c(OC)cc1Br	0%
O=C(Nc1ccc(C(=O)O)cc1)/C(=C\c1ccco1)NC(=O)c1ccc(Br)cc1	i
CC1CCN(S(=O)(=O)c2ccc(NC(=O)c3c(Cl)cccc3Cl)cc2)CC1	i
COc1ccc(C(=O)NCCC23CC4CC(CC(C4)C2)C3)cc1	35%
O=[N+]1C=C(c2cccs2)N([O-])C2CCCCC21 (centres undefined)	i
O=C1CC(N2CCC(C(O)(c3ccccc3)c3ccccc3)CC2)C(=O)N1c1cccc(F)c1 (centres undefined)	i
COc1ccc(N(C(C)C(=O)Nc2cccc(Cl)c2)S(C)(=O)=O)cc1 (centres undefined)	1%
NC(N)=NS(=O)(=O)c1ccc(NC(=S)NC(=O)c2ccc(Cl)cc2Cl)cc1	i
CC(C)(C)CC(=O)Nc1cccc(I)c1	7%
CCCc1nc2ccccc2c(=O)n1N	i
CCCCOC(=O)Nc1ccc(S(=O)(=O)Nc2ncccn2)cc1	?
CCNC(=S)Nc1ccc2ccccc2c1	i
COc1cccc(NC(=O)C(=O)NC2CCCCCCCCCCC2)c1	i
O=C(NCCN1CCOCC1)c1cnn2c(C(F)F)cc(-c3ccccc3)nc12	i
CC(C)OC(=O)CSc1nc2ccccc2c(=O)n1-c1ccc(Br)cc1	i
C=CCSc1nc2ccccc2c(=O)n1-c1ccccc1OC	i
CCN1CCN(C(=O)c2ccc(CNS(=O)(=O)c3cccc(OC)c3)cc2)CC1	i
CN(C)CCNC(=S)Nc1ccc(Cl)cc1	i
CCCCOc1ccc(/C=C2\SC(=S)N(CCC(=O)O)C2=O)cc1OC	i
CS(=O)(=O)N1CCN(c2ccc(NC(=S)NC(=O)CC34CC5CC(CC(C5)C3)C4)cc2)CC1	i
O=C(Nc1ccc([N+](=O)[O-])cc1)C12CC3CC(C1)CC(c1ccccc1)(C3)C2	i
CCCSc1nc2c(c(=O)[nH]1)C(c1ccccc1[N+](=O)[O-])C1=C(CC(C)(C)CC1=O)N2 (centres undefined)	i
CC1CC(C)CN(c2oc(COc3ccccc3Cl)nc2C#N)C1 (centres undefined)	5%
COC(=O)CN(C)S(=O)(=O)c1cc(Cl)ccc1Cl	i
CCC(C)C(Nc1ncnc2c1oc1ccccc12)C(=O)O (centres undefined)	i
Cc1ccc(-c2n[nH]c(=O)c3ccccc23)cc1S(=O)(=O)NCc1ccccc1	i
COc1ccccc1CCNC(=O)c1csc(C)c1	0%
N#CCCN(CCC#N)S(=O)(=O)Cc1ccccc1	i
COc1ccc(NC(=S)NCCC2=CCCCC2)cc1OC	i
CCOC(=O)c1c(NC(=S)NC(=O)c2ccc3c(c2)OCO3)sc(C)c1C	i
CCC(C)NC(=S)Nc1cccc(C)c1 (centres undefined)	0%
CCOC(=O)C1CCN(S(=O)(=O)c2cc(OC)ccc2OC)CC1	i
COc1cc(CO)cc(Br)c1OCc1cccc([N+](=O)[O-])c1	3%
C=CCn1c(SCC(N)=O)nnc1-c1ccc(OC)cc1	4%
CC(C)OCCCNC(=O)CCSc1ccc(Cl)cc1	i
COc1ccc(S(=O)(=O)N(C)CC(=O)Nc2ccccc2C(F)(F)F)cc1OC	i
O=C(NCCCc1ccccc1)c1ccccc1F	i
O=C(NCc1ccco1)c1ccccc1NC(=O)C1COc2ccccc2O1 (centres undefined)	5%
Cc1cccc(-c2n[nH]c(=S)n2C)c1	i
O=S(=O)(Nc1ccc2c(c1)OCCO2)c1ccc(Br)s1	12%
C=CCn1c(SCC(=O)NC2CCCC2)nnc1-c1ccc(Br)cc1	1%
COc1cc(NC(=O)c2ccc(S(=O)(=O)N(C)C)cc2)cc(OC)c1OC	1%
CCc1ccccc1NC(=O)Cc1coc2ccc3ccccc3c12	i
COC(=O)Cc1c(C)c2c(OC(C)C(=O)c3ccccc3)cc(C)cc2oc1=O (centres undefined)	1%
COC(=O)C(C)Oc1ccc2c(=O)c(Oc3ccccc3Br)coc2c1 (centres undefined)	3µg/mL*
CCCn1nnc(NC(=O)c2ccccc2I)n1	i
CCOc1c(Cl)cc(C(=O)Nc2ccccc2C(=O)OC)cc1Cl	i
COC(=O)C(C)(C)NC(=O)CCOc1ccc(OC)cc1	i
CS(=O)(=O)N(CC(=O)Nc1ccc(I)cc1)Cc1ccccc1	2%
O=C(CN1C(=O)c2ccccc2C1=O)Nc1nc(-c2ccc(F)cc2)cs1	i
CCOC(=O)C1=CN(C(C)C)C=C(C(=O)OCC)C1c1ccc(OC)c(Br)c1	5%
Cc1cc(=O)oc2cc(OC(C)C(=O)NCC3CCCO3)ccc12 (centres undefined)	i
Cc1ccc(S(=O)(=O)N(CC(=O)NCc2ccco2)Cc2c(Cl)cccc2Cl)cc1	i
COc1ccc(NC(=S)NC(=O)c2ccccc2)cc1	i
O=c1[nH]c(=O)c2sc3nc(-c4ccc5c(c4)OCCO5)cc(C(F)(F)F)c3c2[nH]1	i
CC(NS(=O)(=O)c1ccc(OCC(=O)N2CCCCC2)cc1)c1ccccc1 (centres undefined)	i
N#Cc1nc(-c2ccccc2Cl)oc1NCCCN1CCOCC1	i
CCC(C)(C)C1CCc2c(sc(N)c2C(N)=O)C1 (centres undefined)	i
Nc1nnc(C2CCCCC2C(=O)O)s1 (centres undefined)	i

# (cont.)
SMILES	Mtb H37Rv
CC(C)(C)SCCNC(=O)CN(c1ccc(Cl)cc1Cl)S(C)(=O)=O	i
Cc1ccc(-c2nnc(Nc3ccccc3)c3ccccc23)cc1S(=O)(=O)NCC1CCCO1 (centres undefined)	7%
COc1ccc(CCNC(=S)Nc2ccc(F)cc2)cc1OC	i
COc1ccc(NC(=O)Cn2cnc3sc4c(c3c2=O)CCCC4)cc1	i
O=C(Cc1ccccc1)Nc1ccc(C(F)(F)F)cc1	i
COc1cccc(COc2ccc3c4c(c(=O)oc3c2OCc2cccc(OC)c2)CCC4)c1	8%
CCc1ccc(NC2=CC(=O)CC(c3ccco3)C2)cc1 (centres undefined)	i
COc1ccc(Cc2nnc(SCC(=O)Nc3ccc(C)c(C)c3)o2)cc1	4%
CCc1cccc(C)c1NC(=O)c1ccc(Br)s1	i
CC1CCCCN1C(=O)COc1ccccc1F (centres undefined)	i
COc1ccc(S(=O)(=O)N2CCN(c3ccccc3)CC2)c(Cl)c1Cl	i
Cc1cc(OCC(=O)NCC2CCCO2)ccc1Cl (centres undefined)	i
O=[N+]([O-])c1ccccc1S(=O)(=O)N(CC(O)CN1CCCCC1)c1ccccc1 (centres undefined)	0%
COc1ccc(NC(=O)c2ccccc2NC(=O)C(C)C)cc1	i
CC(Oc1ccccc1)C(=O)Nc1cccc(NC(=O)c2ccco2)c1 (centres undefined)	i
O=C1OC(C(=O)Nc2ccccc2I)Cc2ccccc21 (centres undefined)	i
CCC(C)c1ccccc1OCCCN1CCN(C)CC1 (centres undefined)	i
O=C(Nc1ccc(I)cc1)C(=O)N1CCCCC1	1%
